hNpr1 antagonist = human Npr1 receptor antagonism. P16066. HEK293 hNpr1 GloSensor cGMP, ANP-stimulated luminescence. 76,000 compounds, 1.6% hits. Potency, µM (doses to about 46.3 µM), inactives show at the top dose activity change, negative = inhibition, actives largely listed as inhibitors; active = well fitted inhibition curve with a large enough effect; inconclusive = small, poorly fitted or top-dose-only effect; inactive = no such curve, though single readings can be large or run the other way;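 also: nearly all actives have a fitted effect of over 60% in size; nearly all hits also lower the signal before the agonist is added; a reference antagonist and vehicle were the controls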
Target sequence (P16066 whole entry, looked up): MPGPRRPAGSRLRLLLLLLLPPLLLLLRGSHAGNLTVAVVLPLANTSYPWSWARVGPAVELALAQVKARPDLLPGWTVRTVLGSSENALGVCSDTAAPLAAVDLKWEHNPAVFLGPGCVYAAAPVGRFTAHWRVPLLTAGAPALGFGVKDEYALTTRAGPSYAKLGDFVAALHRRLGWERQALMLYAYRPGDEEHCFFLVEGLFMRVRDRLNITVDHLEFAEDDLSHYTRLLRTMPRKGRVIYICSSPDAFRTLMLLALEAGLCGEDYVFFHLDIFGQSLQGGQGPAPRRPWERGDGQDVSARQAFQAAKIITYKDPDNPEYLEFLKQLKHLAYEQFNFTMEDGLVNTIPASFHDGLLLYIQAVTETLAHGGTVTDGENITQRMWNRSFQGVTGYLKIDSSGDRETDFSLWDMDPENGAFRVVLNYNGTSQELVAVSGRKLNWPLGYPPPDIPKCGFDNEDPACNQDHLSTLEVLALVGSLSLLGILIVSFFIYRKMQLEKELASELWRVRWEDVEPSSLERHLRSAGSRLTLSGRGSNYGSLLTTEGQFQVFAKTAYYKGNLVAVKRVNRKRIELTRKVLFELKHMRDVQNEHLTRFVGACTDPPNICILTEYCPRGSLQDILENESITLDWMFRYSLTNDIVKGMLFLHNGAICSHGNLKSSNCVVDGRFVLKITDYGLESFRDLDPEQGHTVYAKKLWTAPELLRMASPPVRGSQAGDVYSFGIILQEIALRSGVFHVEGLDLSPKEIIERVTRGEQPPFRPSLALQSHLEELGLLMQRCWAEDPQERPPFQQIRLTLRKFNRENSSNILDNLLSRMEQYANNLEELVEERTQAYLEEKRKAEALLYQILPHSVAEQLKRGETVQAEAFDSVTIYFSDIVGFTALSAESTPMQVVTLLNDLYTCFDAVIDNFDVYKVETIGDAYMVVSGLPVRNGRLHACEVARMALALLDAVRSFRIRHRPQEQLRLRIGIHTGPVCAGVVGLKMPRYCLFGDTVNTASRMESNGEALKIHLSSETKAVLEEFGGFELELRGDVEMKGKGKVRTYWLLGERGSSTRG
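Compound pre-incubated 30 min at room temperature on GloSensor-loaded HEK293 cells stably carrying hNpr1 and the pGS-40F cGMP biosensor. Stimulation uses hNppA at 0.1 nM final; luminescence is taken at baseline and 20 min post-agonist.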
Active calls of the source: *; ? = inconclusive; [ ] = remark or other dose. % is scaled to controls: 0 for no effect and ±100 for the full control effect; potency is read from the fitted curve at half-maximal effect. A portion of the library; rates above refer to the full screens.

hNpr1 antagonist | Compound
-8% | CCn1cc(S(=O)(=O)N2CC(Oc3ccc(-c4nc(C)no4)cc3)C2)cn1
3% | Cc1ccc(-n2nc(CC(N)=O)nc2CCn2ccc(=O)[nH]c2=O)c(C)c1
4% | CN(CCCc1nccn1C)C(=O)[C@H]1CNC[C@H](C(=O)N2CCOCC2)C1
-1%[70.6 µM] | COc1ncccc1-c1n[nH]c2c1CC(=O)N(c1ccccc1)C2
0% | CCN1CC(CN(C)Cc2cn(-c3ccccc3C)nc2-c2ccc(OC)c(F)c2)CC1=O (configuration not stated)
0%[70.6 µM] | COc1ccc(CN2C(=O)[C@@H]3C[C@@H](CN3C(=O)c3cnccn3)Oc3ccccc32)cc1
1% | COc1ccc(C2Cn3cnc(C(=O)N4CCC(C(=O)NCc5cccc(C)c5)CC4)c3CO2)cc1 (configuration not stated)
0% | COCCNC(=O)C1c2ccccc2C(=O)N(C2CCCCC2)C12CCCCC2 (configuration not stated)
2% | CN1C(=O)CS(=O)C12CCN(S(=O)(=O)c1ccc(F)cc1)CC2 (configuration not stated)
4% | COCc1cn(C[C@H]2C[C@@H](NCc3cccc4c3OCO4)[C@H](O)[C@@H]2O)nn1
-2%[70.6 µM] | COCc1nc2nc(-c3ccccc3)c(Nc3ccncc3)cc2n1C
4% | Cc1ccc(CN2CCCC3(CCC(=O)N(CCc4cnc[nH]4)C3)C2)s1 (configuration not stated)
5% | CC1Oc2ccc(NC(=O)Cc3ccc(F)cc3)cc2CN(CC2CC2)C1=O (configuration not stated)
3% | COCCOC1CCN(C(=O)c2ccc3cc[nH]c3c2)CC1
-11% | O=C1NCCOCCCN(C(=O)NC2CCCCC2)[C@H]2CCCC[C@@H]12
0% | CCC(O)C(=O)N1CCc2[nH]nc(C(c3ccccc3)c3ccccc3)c2C1 (configuration not stated)
10µM* | COc1ccc(C(=O)Nc2ccc(-c3noc([C@@H]4CCCN4Cc4c[nH]c5ccccc45)n3)cn2)cc1
-21% | O=C(Nc1ccc2ncnc(N3CCCC3)c2c1)c1ccc(F)c(F)c1
0% | COc1cccc(CCC(=O)N2CC(c3noc(COc4ccc(C)cc4)n3)C2)c1
2% | O=C(Cn1c(=O)c2c(n1Cc1ccccc1)CN(Cc1ccccc1)CC2)NCc1cccc(F)c1
-3%[70.6 µM] | COCCNc1cc2c(cn1)CN(Cc1ccccc1)CCN2
-3% | COc1ccc(C(=O)N2CCN(c3nnc4c(Cl)cccn34)CC2)cc1
-3% | O=C(Cn1nc2n(c1=O)CCCC2)N1CCN(c2ccccc2)CC1
0% | Cc1ccc(NC(=O)Cn2ccn3nc(-c4ccc(F)cc4)c(CO)c3c2=O)c(C)c1
1% | CC(C)(C)n1ccc(C(=O)N2CCC3(CCCN(C4CCCC4)C3=O)C2)c1 (configuration not stated)

Molecules listed so far with sulfur:
hNpr1 antagonist | Compound
-8% | CCn1cc(S(=O)(=O)N2CC(Oc3ccc(-c4nc(C)no4)cc3)C2)cn1
2% | CN1C(=O)CS(=O)C12CCN(S(=O)(=O)c1ccc(F)cc1)CC2 (configuration not stated)
4% | Cc1ccc(CN2CCCC3(CCC(=O)N(CCc4cnc[nH]4)C3)C2)s1 (configuration not stated)

Next compounds:
hNpr1 antagonist | Compound
-4% | COc1ccc(CCN2Cc3cc(NC(=O)Cc4ccccc4)ccc3OC(C)C2=O)cc1 (configuration not stated)
? | COc1ccc(C2=NOC3(CCN([S+](=O)([O-])c4cccs4)C3)C2)cc1 (configuration not stated)
-26% | COc1ccc(C(=O)N2CCC3(CC2)N=C(c2ccc(C)cc2)NO3)cc1OC
0% | Cn1cnc(S(=O)(=O)N[C@@H]2CCOC[C@H]2Oc2ccc(C(N)=O)cc2)c1
2% | COCCC(=O)N1CCCCCC1CN1CCOCC1 (configuration not stated)
-6%[70.6 µM] | O=C(C1CCOCC1)N1CCOC[C@H](Oc2ccc(C(F)(F)F)cn2)C1
-3%[70.6 µM] | Cc1ccccc1Nc1cnc2ccc(-c3cccc(CO)c3)nn12
1% | COCCN1CC(C(=O)NCCOc2ccccc2)CCC1=O (configuration not stated)
4% | CCc1nc(C)c(C(=O)N2CCn3nc(C(O)Cc4ccccc4)cc3C2)o1 (configuration not stated)
? | CC(C)CCNC(=O)c1cnc2n1CCN(Cc1ccc(C(C)C)cc1)CC2
-7% | CC1CCN(C(=O)CC2Sc3ncccc3N(C)C2=O)CC1 (configuration not stated)
-28% | CCOc1ccc(C(=O)N2CCC(n3cc(-c4nc(CC)no4)nn3)C2)cc1 (configuration not stated)
-5% | CN(Cc1csc(-c2ccccc2)n1)C(=O)CC1COCCN1 (configuration not stated)
-3% | O=C(C[C@@H]1C[C@H]2O[C@H](CNCc3ccccc3C(F)(F)F)[C@@H](O)[C@H]2O1)N1CCC(F)(F)C1
-17% | Cc1cc(NC(=O)c2ccc3c(c2)N(C)C2CCCCN2C3=O)ccc1Br (configuration not stated)
4% | COC[C@@H]1CN(c2cnccn2)C[C@H]1C(=O)NCc1ccccc1OC
17% | Cc1c(O)cccc1C(=O)N1CCCn2nc(C(=O)NCCN(C)C)cc2C1
4µM* | COc1ccc(NC(=O)N2CCc3c(C(=O)N(C)C)cccc32)cc1
10% | COc1ccccc1CCC(=O)NCc1nnc2ccc(-c3ccc(C)cc3)nn12
-1%[70.6 µM] | CC(C)C[C@@H]1N[C@H](C(=O)NC2CCCC2)Cc2cn(Cc3nccn3C)c3cccc1c23
-1% | COc1ccc(-c2nc(C(C)C)nc3c2CCN(C(=O)c2ccccc2C)CC3)cc1
0% | O=C1Nc2ccccc2OCC12CCN(Cc1ccccc1C(F)(F)F)CC2
? | Cc1ccccc1C(=O)N(C)Cc1ccc(-c2ccccc2)cc1
3% | COCCn1c(C)cnc1CC1CCN(C(=O)NCCc2ccccc2)C1 (configuration not stated)
4%[70.6 µM] | COC[C@H]1CCCN1C(=O)CC[C@H]1CNC(=O)[C@@H]2[C@@H](CCN2C)N1C
3% | O=C(CC1CCCC1)N1CCCCCC1CN1CCCC1 (configuration not stated)
5%[70.6 µM] | COCC(=O)N[C@H]1CO[C@H]2[C@@H]1OC[C@@H]2Nc1nccc(-c2cccc(C#N)c2)n1
1% | COc1ccc2[nH]c3c(c2c1)CCN(C)C31CCN(C(=O)c2cnccc2C)CC1
2%[70.6 µM] | COc1ccccc1-c1cn(C)c(=O)n2cc(COc3ccc(C(=O)O)cc3)nc12
3%[70.6 µM] | C[C@@H](c1ccccc1)N1C(=O)[C@@H]2CN(C(=O)c3cccnc3)CCN2C1=O
? | CS(=O)(=O)c1ccc(O[C@H]2COCCN(Cc3ccc(-c4ccccc4)cc3)C2)cc1
2% | O=C1CCC(CCC(=O)N[C@@H]2COCC[C@@H]2Oc2ccc(F)cc2)=NN1
-2% | Cc1cc(=O)n2[nH]c(CC(=O)N3CCn4nc(C(C)O)cc4C3)nc2n1 (configuration not stated)
-2% | CCn1nccc1C(=O)N1CCCCCCN(C)C(=O)[C@@H]2CCC[C@@H]21
3% | Cc1nc(C(=O)N2CCC(c3n[nH]c(=O)n3Cc3ccccc3)CC2)c(C)o1
-23%[70.6 µM] | CN(C)[S+](=O)([O-])c1ccc2c(c1)OCCN(Cc1cccc(Cl)c1)C2
7% | Cc1cccc(-n2nc(COc3ccccc3)nc2CN2CCOC2=O)n1
5% | CCSCCn1nc(CC2CCNCC2)n(CC)c1=O
0%[70.6 µM] | O=C(NC1CCCC1)N[C@@H]1C[C@H](CO)[C@@H](O)[C@H]1O
1% | COCCN1C(=O)CC[C@]2(C(=O)NCc3ccc(C)cc3)CCCC[C@@H]12
-1% | COc1ccc(C(=O)N[C@H]2CC[C@]3(C)CCC([C@H](C)C(=O)NC4CCCCC4)[C@H](O)[C@H]3[C@@H]2C)cc1 (some centres not stated)
0% | CCn1nccc1C(=O)NC1CCCN(c2cc(N(C)C)ncn2)C1 (configuration not stated)
0% | CCn1cnnc1CC1CCN(C(=O)c2ccc3ccccc3n2)C1 (configuration not stated)
-26% | Cc1nc(-c2ccc(OC3CCN(C(=O)NC(C)C)C3)cc2)no1 (configuration not stated)
-1% | COCC(=O)NCCC1CCN(C(=O)Nc2cc(F)cc(F)c2)CC1
-18% | CCC(CC)CC(=O)N1CCCC(Nc2ccc3c(c2)OCCO3)C1 (configuration not stated)
-13%[70.6 µM] | COc1ccc(NC(=O)O[C@@H]2CO[C@H]3[C@@H]2OC[C@@H]3NC(=O)NC2CCCCC2)cc1
? | Cc1ccc(C(=O)N2CCC3(CC2)CC(N2CCN(c4ccccc4)CC2)CCO3)cn1 (configuration not stated)
2%[70.6 µM] | CC1=C[C@@H](CNC(=O)CN(C)C)[C@H](C(C)C)C[C@H]1Cc1nc2ccccc2[nH]1
4% | N#CCn1nc2n(c1=O)CCN(C(=O)c1cccc3[nH]ccc13)CC2

4 entries picked at random from those above:
hNpr1 antagonist | Compound
-23%[70.6 µM] | CN(C)[S+](=O)([O-])c1ccc2c(c1)OCCN(Cc1cccc(Cl)c1)C2
3% | O=C(CC1CCCC1)N1CCCCCC1CN1CCCC1 (configuration not stated)
1% | COc1ccc2[nH]c3c(c2c1)CCN(C)C31CCN(C(=O)c2cnccc2C)CC1
0% | CCn1nccc1C(=O)NC1CCCN(c2cc(N(C)C)ncn2)C1 (configuration not stated)

Continuation.
hNpr1 antagonist | Compound
1% | CN(C)S(=O)(=O)N1CCOCCNC(=O)[C@@H]2CCC[C@@H]21
-3%[70.6 µM] | Cc1cccc([S+](=O)([O-])N2CCC3(CC2)OCCN(C)C3=O)c1
3%[70.6 µM] | COCC(=O)N[C@H]1CCN2C(=O)c3cc(Br)ccc3NC(=O)[C@@H]2C1
1% | COCCN1CCC(N2CCN(S(=O)(=O)c3cccc(Cl)c3)CC2)C1=O (configuration not stated)
4% | Cc1ccc(F)cc1S(=O)(=O)N(C)CC1CCOC1 (configuration not stated)
-1% | O=C(NCCc1cccnc1)c1ccc(-c2nnc3ccc(NC(=O)C4CCC4)cn23)cc1
7% | CC1(C)N=C(c2ccccc2)C(=O)N1CC(=O)NC1CCCCC1
-24% | CCc1cc(=O)n(CC(=O)N2CCN(c3ccccc3F)CC2)c(N2CCOCC2)n1
2% | COCCC(=O)N1C[C@H]2OC(=O)N(CCc3ccc(OC)cc3)[C@H]2C1
-24% | O=C(c1ccc(F)cc1)N1CCC2(CC1)CC(c1cccc(C(F)(F)F)c1)=NO2
-1% | O=C(N[C@H]1CCN2C(=O)c3cc(-c4ccc(Cl)cc4)ccc3NC(=O)[C@H]12)C1CCCC1
-2% | CN(C)c1ccc(C(=O)N2CC[C@H]3NC(=O)N(c4ccc(Oc5ccccc5)cc4)C(=O)[C@H]32)cc1
-5% | CCn1cnnc1CC1CCN(C(=O)C2CCCC2)C1 (configuration not stated)
1% | O=C(O)C[C@@H]1CCN(C(=O)NC2CCCCC2)C[C@@H]1CCN1CCN(c2ccc(F)cc2)CC1
-2%[70.6 µM] | CCN(CC)C(=O)[C@@H]1CCC[C@@H](NC(=O)c2ccc(OC)cc2)CN(C)C(=O)C1
7% | Cn1cc(C(=O)N2CCCC(Cc3noc(-c4ccncc4)n3)C2)cn1 (configuration not stated)
1% | Cc1noc([C@@H]2CN(S(=O)(=O)c3cccnc3)C[C@H]2C(N)=O)n1
1%[70.6 µM] | Cc1ncc2n1C(=O)N(C1CCN(CC3CC3)CC1)C2
-10% | CN(C)c1ccc(C(=O)N2CCc3cn(C)c4cccc(c34)C2)cc1
6% | CN1C(=O)CCC2(CNC(=O)c3ccoc3)CCCC=C12 (configuration not stated)
0%[70.6 µM] | c1cc(CN2CCn3c(nnc3C3CCCNC3)C2)cs1 (configuration not stated)
-20%[70.6 µM] | OCc1cccc(-c2ccc3ncc(Nc4cccc(C(F)(F)F)c4)n3n2)c1
-8% | Cc1ccc(CCNC(=O)c2nnn3c2COC(c2ccc(F)cc2)C3)cc1 (configuration not stated)
? | Cc1ccccc1CCC1CCCN(C(=O)c2cccc(O)c2C)C1 (configuration not stated)
-5% | CCc1cccc(NC(=O)Cn2c(-c3cccc(Cl)c3)nc(C)c(CCO)c2=O)c1

Among those listed so far, two have two or more sulfur atoms.
hNpr1 antagonist | Compound
2% | CN1C(=O)CS(=O)C12CCN(S(=O)(=O)c1ccc(F)cc1)CC2 (configuration not stated)
? | COc1ccc(C2=NOC3(CCN([S+](=O)([O-])c4cccs4)C3)C2)cc1 (configuration not stated)

Molecules shown so far that contain bromine:
hNpr1 antagonist | Compound
-17% | Cc1cc(NC(=O)c2ccc3c(c2)N(C)C2CCCCN2C3=O)ccc1Br (configuration not stated)
3%[70.6 µM] | COCC(=O)N[C@H]1CCN2C(=O)c3cc(Br)ccc3NC(=O)[C@@H]2C1

Other entries:
hNpr1 antagonist | Compound
4% | N#Cc1cccc(NC(=O)Nc2ccc(=O)n3c2[C@@H]2C[C@@H](CN(C(=O)COc4ccccc4)C2)C3)c1
4% | CCC(=O)Nc1ccc(OCC(=O)N[C@H]2CN(C(C)C)C[C@@H]2OC)cc1
-5% | COc1ccc(S(=O)(=O)N2CCCC(Cn3cnc4cccnc43)C2)cc1OC (configuration not stated)
-2% | Cc1cccc(OCC(=O)NCCn2ccn3nc(-c4ccc(C)c(C)c4)cc3c2=O)c1
-1% | COC1C(=O)N(C2CCN(C(=O)c3cc(C)nn3C)CC2)C12CCOCC2 (configuration not stated)
7.1µM* | O=C(Nc1cccc(F)c1)N1CC(Oc2ccc(-c3nc(-c4ccccc4)no3)cc2)C1
0% | CC(C)(C(=O)NCCc1ccccn1)C1CCOCC1
6% | COCCOc1cc(=O)n2c(c1C(=O)NCc1ccccc1)CCOCC2
7% | CCN(Cc1ccncc1)C(=O)c1cc(-c2cnc(C)nc2)nc2cc(F)ccc12
